Mtb H37Rv – Mycobacterium tuberculosis H37Rv growth inhibition, putative kinase inhibitor library, confirmatory dose response (AID 2842) | M. tuberculosis H37Rv growth inhibition; higher % means a stronger effect; some inactives read as strong as hits | one-dose inhibition, % at 10 µg/mL; IC90 in µg/mL for titrated hits | actives 5.2% (n = 24,000);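 active means confirmed in a dose series; about a fifth of its hits are not listed in these tables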;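 further: bacteria incubated one week before Alamar blue readout; 0% = bacteria only wells and 100% = bacteria with high antibiotic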
* marks the source's active call; other numbers are inactive results. Not all compounds are listed; count on the stated rates, not on these rows.

SMILES | Mtb H37Rv
COc1cccc(-c2ccc(SCC(=O)Nc3nc4ccccc4s3)nn2)c1 | -15%
C=C(C)CSc1nc2c(c(=O)[nH]c(=O)n2C)n1CCCCCC | 10%
O=C(NCc1ccncc1)C(=O)Nc1c2c(nn1-c1cccc(Cl)c1)CSC2 | 2%
O=c1cc(N2CCc3ccccc3C2)[nH]c(=O)n1C1CCCCC1 | 5%
COc1ccc(OC)c2[nH]c(=O)c(CCNC(=O)c3ccc(F)c(F)c3)cc12 | -10%
CSc1nnc(NC(=O)c2cc(Cl)ccc2Cl)s1 | 6%
Cc1ccc(S(=O)(=O)N2CCCC2C(=O)Nc2nc3ccccc3s2)cc1 (stereo not drawn) | 0%
COc1ccc(OC)c2[nH]c(=O)c(CCNC(=O)C(C)C)cc12 | 6%
O=C1CCc2cc(NS(=O)(=O)c3ccc([N+](=O)[O-])cc3)cc3c2N1CCC3 | 10%
O=C(Nc1nnc(-c2cccs2)o1)C1=COCCO1 | 6.2µg/mL*
COc1ccc(OC)c(S(=O)(=O)Nc2cc3c4c(c2)CCN4C(=O)CC3)c1 | -14%
O=C(Nc1cccc(Cl)c1)c1oc2ccccc2c1NC(=O)c1cccc2ccccc12 | 5%
O=C(Nc1ccc(Cl)cc1)c1cccc(-n2cnnn2)c1 | 4%
CCOC(=O)c1nn(-c2ccc(OC)cc2)c(=O)c2c(NC(=O)C34CC5CC(CC(C5)C3)C4)scc12 | 5%
Cc1cc(=O)[nH]c2ccc(S(=O)(=O)Nc3ccc(Br)cc3)cc12 | -6%
CN1CCc2c(sc(NC(=O)c3ccc(S(=O)(=O)N4CCCCC4)cc3)c2C(N)=O)C1 | -7%
Clc1cccc2sc(N3CCN(c4nc5ccccc5s4)CC3)nc12 | 2%
CCOC(=O)c1sc2ncnc(N3CCC(C)CC3)c2c1C | -5%
Cc1cc(=O)n2c3ccccc3n(CC(O)CN3CCC(C)CC3)c2c1C#N (stereo not drawn) | 3%
N#Cc1c(NC(=O)c2cccnc2)sc2c1CCCCC2 | 32%
COc1ccc(-c2nnc3sc(-c4ccc(Br)o4)nn23)cc1 | 0%
Cc1c(/C(O)=C2\C(=O)C(=O)N(CCCN(C)C)C2c2ccccc2)cnn1-c1ccccc1 (stereo not drawn) | -7%
O=C(COc1cc(=O)[nH]c2ccccc12)Nc1ccccc1 | -7%
Cc1ccc(CNC(=O)CSc2ccc(-c3ccc4c(c3)OCO4)nn2)cc1 | 2%
CC(=O)Cn1c(=O)c2c(nc3n(-c4cccc(C)c4C)c(C)cn23)n(C)c1=O | 15%
Cn1c(=O)[nH]c(=O)c2c1nc(N)n2CCCc1ccccc1 | 8%
CCOc1ccc(C(=O)Oc2cc(C)[nH]c(=O)c2[N+](=O)[O-])cc1 | -11%
CC1CC(C)CN(c2nc3c(c(=O)n(C)c(=O)n3C)n2CCSc2nc3ccccc3o2)C1 (stereo not drawn) | 6%
COC(=O)c1ccc(/C=C2\SC(=S)N(CCCC(=O)Nc3ccccc3O)C2=O)cc1 | -3%
CN(C)S(=O)(=O)c1ccc(C(=O)NCc2nnc(SCC(=O)NCc3ccccc3)o2)cc1 | -1%
Cc1ccccc1-n1c(-c2ccccc2)cn2c3c(=O)[nH]c(=O)n(C)c3nc12 | 21%
COc1ccccc1-c1nnc(NC(=O)c2sc3ccccc3c2Cl)o1 | 5.3µg/mL*
CCOC(=O)c1nn(-c2ccc(C)cc2)c(=O)c2c(NC(=O)CCCl)scc12 | -4%
COc1ccc(CCNc2nc3c(-c4cccc(C)c4)nnn3c3ccccc23)cc1OC | -9%
CC1(C)Cc2c(sc(NC(=O)c3ccc(Oc4ccccc4)cc3)c2C(N)=O)C(C)(C)N1 | 6.2µg/mL*
O=c1cnnc(Nc2ccc(OCc3ccccc3)cc2)[nH]1 | 0%
Cc1ccc(C(=O)CSc2nnc3ccc(-c4ccncc4)nn23)cc1 | -11%
CN(C)S(=O)(=O)c1ccc2nc(NC(=O)c3cc4ccccc4oc3=O)sc2c1 | 8%
CC(C)Oc1ccc(C(=O)Nc2sc3c(c2C(N)=O)CCCCC3)cc1 | -1%
COc1cc(/C=C2/SC(=S)N(C(C)C(=O)O)C2=O)cc(Br)c1O (stereo not drawn) | -11%
C=CCn1c2c(c(=O)[nH]c1=O)C(c1ccccc1C)C1=C(COC1=O)N2 (stereo not drawn) | 3%
C=CCSc1nc2c(c(=O)[nH]1)C(c1cccs1)C1=C(CCCC1=O)N2 (stereo not drawn) | -1%
CC1Cc2cc(/C(O)=C3/C(=O)C(=O)N(Cc4ccco4)C3c3cccnc3)ccc2O1 (stereo not drawn) | -46%
CC(C)(C)C(=O)Nc1c(C(=O)Nc2ccccc2)oc2ccccc12 | -1%
O=C(Nc1ccc(S(=O)(=O)N2CCCCCC2)cc1)c1nc2ncccn2n1 | 3%
CCOC(=O)c1nn(-c2ccc(Cl)cc2)c(=O)c2c(NC(=O)c3ccc(OCC)cc3)scc12 | 11%
O=C(Nc1c(C(=O)Nc2ccc(OC(F)(F)F)cc2)oc2ccccc12)c1ccc(F)cc1 | 27%
COc1ccccc1-n1c(CNC(=O)c2ccc(Cl)cc2Cl)nnc1SC | 10%
Clc1ccc2nc(Nc3nc4cc5c(cc4s3)OCO5)sc2c1 | 99%
Cc1cccc(OCC(O)Cn2c(N3CCCC(C)C3)nc3c2c(=O)[nH]c(=O)n3C)c1 (stereo not drawn) | 20%
(more compounds)
SMILES | Mtb H37Rv
O=C(Cc1n[nH]c(=O)[nH]c1=O)N/N=C\c1ccccc1I | -5%
COc1ccc(C(=O)NNc2nc3c(OC)ccc(OC)c3s2)cc1OC | -4%
Cn1c(=O)[nH]c(=O)c2c1nc(N1CCCC1)n2CCSc1ncccn1 | 4%
Cc1ccccc1Nc1nc(-c2ccc([N+](=O)[O-])cc2)nc2ccccc12 | -2%
Cn1c(=O)c2c(SCc3ccc(F)cc3)nc(-c3ccco3)nc2n(C)c1=O | -3%
COc1cc(C(C)=O)ccc1OC(=O)c1ccccc1Br | 7%
O=C(Nc1c(C(=O)Nc2ccccc2F)oc2ccccc12)c1ccccc1Cl | 10%
NC(=O)C1CCN(C(=O)CCCCCn2c(=O)[nH]c3ccsc3c2=O)CC1 | -15%
COc1ccc(C(=O)c2cn(CC(=O)Nc3ccc4c(c3)OCO4)c3cc4c(cc3c2=O)OCCO4)cc1 | 9%
CC(C)(C)c1ccc(C(=O)Nc2ccc3c(c2)C(=O)NC3=O)cc1 | -1%
Cc1ccc(C(=O)Nc2cccc(-c3ccc4nnc(-c5cccnc5)n4n3)c2)cc1C | 6%
Cc1nnc(NCCCc2nc3ccccc3[nH]2)[nH]c1=O | -11%
CCOC(=O)c1nn(-c2ccccc2)c(=O)c2c(NC(=O)c3c(-c4ccccc4Cl)noc3C)scc12 | -7%
C=CCn1c(=N)c(C(=O)NCCCOC)cc2c(=O)n3cc(C)ccc3nc21 | -2%
CC(C)Cn1c(N2CCN(Cc3ccc(Cl)c(Cl)c3)CC2)nc2c1c(=O)[nH]c(=O)n2C | 1.4µg/mL*
CCn1cc(C(=O)Nc2ccc(OC(F)(F)F)cc2)c2nn(-c3ccccc3)c(=O)c-2c1 | 0%
COc1ccc2c(c1)c(=O)c(C(=O)c1ccc(C)c(C)c1)cn2CC(=O)Nc1ccc2c(c1)OCCO2 | -7%
CCOc1ccccc1C(=O)Nc1c2c(nn1-c1ccc(Cl)cc1)CSC2 | 8%
O=C(CSc1nccn(-c2ccc(F)cc2)c1=O)Nc1ccc(F)cc1 | -6%
O=C(NCc1ccc(F)cc1)NC1CC(=O)N(c2ccc3c(c2)OCCO3)C1 (stereo not drawn) | 2%
O=C(COc1ccc(Cl)cc1Cl)Nc1nnc(-c2ccccc2)s1 | -1%
CC(C)C(=O)Nc1nc(-c2ccccc2)c(-c2ccccc2)s1 | 0%
O=C(CSc1nc2[nH]ncc2c(=O)[nH]1)N1CCCc2ccccc21 | -11%
COc1ccc(CNc2nc3c(-c4cccc(C(F)(F)F)c4)nnn3c3ccccc23)cc1 | -7%
O=C(CSc1nc2c(c(=O)n1-c1ccccc1)SCC2)Nc1cccc(Cl)c1 | 7%
O=C(/C=C1\SC(=O)NC1=O)Nc1ncc(Cc2cccc(C(F)(F)F)c2)s1 | -7%
COc1ccccc1-n1c(=O)[nH]c2c(C(N)=O)nc(-c3ccccc3O)nc21 | 6%
COc1ccccc1C(=O)Nc1sc2c(c1C(N)=O)CC(C)(C)NC2(C)C | 4%
NC(=O)c1ccc(NC(=O)C(=O)N2CCC3(CC2)OCCN3S(=O)(=O)c2ccccc2)cc1 | 3%
CN(C)c1ccc(N2C(=O)CC(NNc3ccccc3)C2=O)cc1 (stereo not drawn) | -7%
COc1ccccc1-n1c(SCC(=O)N2CCC(C)CC2)nc2c([nH]c3ccccc32)c1=O | 55%
Cc1c(C)n2c(SCc3ccc(Cl)c(Cl)c3)nnc2[nH]c1=O | -6%
O=c1c2[nH]c3ccccc3c2nc(SCCN2CCCCC2)n1-c1ccccc1F | 15µg/mL*
COc1ccc2cc(CCNC(=O)c3ccc(F)cc3)c(=O)[nH]c2c1 | 7%
COc1ccccc1-n1c(=O)[nH]c2c(C(N)=O)nc(-c3ccc(OCc4ccccc4)cc3)nc21 | 4%
O=C(NNc1nc2c(F)cccc2s1)c1cc2ccccc2oc1=O | 8.2µg/mL*
CCOC(=O)c1c(NC(=O)c2cc3ccccc3cc2OC)sc2c1CCCC2 | -4%
COc1ccc(N2C(=O)C3N=NN(CC(=O)Nc4ccccc4F)C3C2=O)cc1Cl (stereo not drawn) | -5%
O=C(CSc1nc2c(c(=O)n1-c1ccc(Cl)cc1)SCC2)Nc1cccc(F)c1 | 6%
O=C1CSC(=O)N1CCNc1ccccc1 | -4%
CSC1=C(C#N)C(c2ccco2)C(C(=O)Nc2ccccc2C)=C(C)N1 (stereo not drawn) | 7%
Cc1ccc(OCC(=O)Nc2ncc(Cc3ccccc3)s2)cc1 | 6%
Cc1ccnc(SCCn2c(N3CCCCCC3)nc3c2c(=O)[nH]c(=O)n3C)n1 | 4%
O=c1[nH]c(SC/C=C/c2ccccc2)nc2sc3c(c12)CCC3 | 68%
NC(=O)Cn1ccn(-c2ccc3c(c2)OCO3)c(=O)c1=O | -5%
COC(=O)C1=C(C)OC(N)=C(C#N)C1c1ccccc1C (stereo not drawn) | 4%
O=C(COc1ccc(Cl)cc1Cl)Nc1nnc(-c2ccccc2Cl)s1 | 9%
CCS(=O)(=O)c1ccc(C(=O)Nc2nc3c(Cl)cccc3s2)cc1 | -5%
Cn1c(=O)[nH]c(=O)c2c1nc(N1CCN(Cc3ccc(Cl)cc3)CC1)n2CCCc1ccccc1 | -18%
O=C(c1cccs1)N1CCN=C1SCc1cccc(C(F)(F)F)c1 | -1%

Not a retest: entries from further up.
SMILES | Mtb H37Rv
COc1ccccc1-n1c(SCC(=O)N2CCC(C)CC2)nc2c([nH]c3ccccc32)c1=O | 55%
Cc1c(C)n2c(SCc3ccc(Cl)c(Cl)c3)nnc2[nH]c1=O | -6%
O=c1c2[nH]c3ccccc3c2nc(SCCN2CCCCC2)n1-c1ccccc1F | 15µg/mL*
COc1ccc2cc(CCNC(=O)c3ccc(F)cc3)c(=O)[nH]c2c1 | 7%
COc1ccccc1-n1c(=O)[nH]c2c(C(N)=O)nc(-c3ccc(OCc4ccccc4)cc3)nc21 | 4%
O=C(NNc1nc2c(F)cccc2s1)c1cc2ccccc2oc1=O | 8.2µg/mL*
CCOC(=O)c1c(NC(=O)c2cc3ccccc3cc2OC)sc2c1CCCC2 | -4%
COc1ccc(N2C(=O)C3N=NN(CC(=O)Nc4ccccc4F)C3C2=O)cc1Cl (stereo not drawn) | -5%
O=C(CSc1nc2c(c(=O)n1-c1ccc(Cl)cc1)SCC2)Nc1cccc(F)c1 | 6%
O=C1CSC(=O)N1CCNc1ccccc1 | -4%
CSC1=C(C#N)C(c2ccco2)C(C(=O)Nc2ccccc2C)=C(C)N1 (stereo not drawn) | 7%
Cc1ccc(OCC(=O)Nc2ncc(Cc3ccccc3)s2)cc1 | 6%
Cc1ccnc(SCCn2c(N3CCCCCC3)nc3c2c(=O)[nH]c(=O)n3C)n1 | 4%
O=c1[nH]c(SC/C=C/c2ccccc2)nc2sc3c(c12)CCC3 | 68%
NC(=O)Cn1ccn(-c2ccc3c(c2)OCO3)c(=O)c1=O | -5%
COC(=O)C1=C(C)OC(N)=C(C#N)C1c1ccccc1C (stereo not drawn) | 4%
O=C(COc1ccc(Cl)cc1Cl)Nc1nnc(-c2ccccc2Cl)s1 | 9%
CCS(=O)(=O)c1ccc(C(=O)Nc2nc3c(Cl)cccc3s2)cc1 | -5%
Cn1c(=O)[nH]c(=O)c2c1nc(N1CCN(Cc3ccc(Cl)cc3)CC1)n2CCCc1ccccc1 | -18%
O=C(c1cccs1)N1CCN=C1SCc1cccc(C(F)(F)F)c1 | -1%

Later entries
SMILES | Mtb H37Rv
COc1ccccc1-n1c(=O)[nH]c2c(C(N)=O)nc(-c3ccc([N+](=O)[O-])cc3)nc21 | 7%
CCOC(=O)c1c(NC(=O)CSc2ncnc3c2oc2ccccc23)sc2c1CCC2 | 5%
CC(C)(C)c1ccc(-n2c(=O)[nH]c3c(C(N)=O)nc(-c4cccc(Cl)c4)nc32)cc1 | 10%
O=C(Nc1nc2c(s1)CCC2)c1cccc(NS(=O)(=O)c2ccc(F)cc2)c1 | -18%
O=C(NCC(c1cccnc1)N1CCN(Cc2ccccc2)CC1)C(=O)Nc1cccc([N+](=O)[O-])c1 (stereo not drawn) | -8%
CC1(C)COCN1S(=O)(=O)c1ccc(C(=O)Nc2nnc(-c3ccc(Cl)s3)o2)cc1 | 48%
COc1ccc(Cl)cc1NC(=O)CSc1nc2c([nH]c3ccccc32)c(=O)n1-c1ccc(Cl)cc1 | 1%
Cc1ccc(NC(=O)CSc2ccc3nnc(-c4cccs4)n3n2)cc1 | -6%
CCC(=O)Nc1ccc(S(=O)(=O)Nc2cc(C)on2)cc1 | -18%
COc1ccc(OCC(=O)Nc2ccc3c(c2)NC(=O)C(C)(C)CO3)cc1 | 12%
CC(/C=N/Nc1nncc(=O)[nH]1)c1ccccc1 (stereo not drawn) | 15%
O=C(/C=C/c1ccccc1Cl)Nc1nc(-c2cc3ccccc3oc2=O)cs1 | -12%

Source: PubChem
